High-throughput results as filed in PubChem.
HSV augment = enhancers of HSV replication in host cells, fold increase, host cell viability; HSV replication augmentation in cells; maximum fold increase; 220,000 compounds, 0.005% hits; AID 1956, 2009;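 active means peak rise of 1.5-fold or more in the series; tested in PC3 cells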;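 further: first round at 10 µM; read as green reporter fluorescence; hits show the peak of a series up to 25 µM; 1 = signal of infected wells without compound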
Insulin prom inh = inhibitors of insulin promoter-driven GFP, primary screen, imaging, TRM-6 cells (human fetal islet line), eGFP reporter, cell count; inhibition, % at 2 µM; AID 1273, 2008; 130,000 compounds, 0.9% hits; reporter expression induced with tamoxifen;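 active means inhibition above the mean plus 3 SD, with well images judged a real hit on visual review, cut at about 60% in these data, passing the limit was not always enough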
PKD1 kinase inh = inhibitors of human PKD1 kinase, biochemical, fluorescence polarization | Serine/threonine-protein kinase D1 (Homo sapiens), Q15139 | PKD1 kinase fluorescence polarization assay | inhibition, %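 (about 10 µM by stock and volumes)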 | 200,000 compounds, 0.056% hits;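 active means inhibition of 50% or more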;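 further: controls were vehicle for no effect and a reference inhibitor for full effect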
Target sequence (Q15139 whole entry, looked up): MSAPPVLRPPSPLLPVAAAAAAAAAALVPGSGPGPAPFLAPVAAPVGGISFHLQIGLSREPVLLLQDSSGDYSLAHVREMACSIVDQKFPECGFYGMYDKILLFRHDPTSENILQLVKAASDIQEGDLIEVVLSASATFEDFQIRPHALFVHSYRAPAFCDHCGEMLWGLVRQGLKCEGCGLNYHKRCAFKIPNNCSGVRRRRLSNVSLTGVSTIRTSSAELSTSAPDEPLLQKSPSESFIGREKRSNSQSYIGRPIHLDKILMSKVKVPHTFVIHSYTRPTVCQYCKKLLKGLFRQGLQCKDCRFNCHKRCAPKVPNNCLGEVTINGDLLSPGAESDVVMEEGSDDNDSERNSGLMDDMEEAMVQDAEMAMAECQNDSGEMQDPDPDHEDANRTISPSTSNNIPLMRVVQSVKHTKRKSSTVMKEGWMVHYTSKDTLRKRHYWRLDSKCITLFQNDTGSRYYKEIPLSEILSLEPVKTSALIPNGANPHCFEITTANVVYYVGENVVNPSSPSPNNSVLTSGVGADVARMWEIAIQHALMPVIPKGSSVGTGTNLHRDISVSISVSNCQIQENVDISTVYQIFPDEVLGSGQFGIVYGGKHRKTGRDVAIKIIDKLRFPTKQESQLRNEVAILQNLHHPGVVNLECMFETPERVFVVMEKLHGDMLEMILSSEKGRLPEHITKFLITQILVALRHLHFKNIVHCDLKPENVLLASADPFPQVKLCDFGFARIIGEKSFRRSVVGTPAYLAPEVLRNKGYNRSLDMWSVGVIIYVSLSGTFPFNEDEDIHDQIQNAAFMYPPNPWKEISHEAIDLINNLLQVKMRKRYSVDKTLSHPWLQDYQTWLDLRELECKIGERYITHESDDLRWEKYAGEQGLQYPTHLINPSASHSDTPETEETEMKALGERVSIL
RGS16-Gao HTS = modulators of RGS16 binding to Galphao, primary screen, biochemical, human proteins, multiplexed bead flow cytometry. Regulator of G-protein signaling 16 (Homo sapiens) + Guanine nucleotide-binding protein …. 220,000 compounds, 0.38% hits. binding response (% of control), % at 10 µM. bead-based flow cytometry RGS16-Galphao binding, fluorescence; actives lie on both sides;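 active means below 25% or above 175%, edge rows of some plates excepted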;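 further: Galphao activated by GDP with aluminum fluoride before binding; 100% = wells without compound and 0% = beads without RGS; some results beyond the cut were filed as inactive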
GALR2 ag = GALR2 receptor agonists, primary screen, cell-based. GALR2-expressing cells, agonist activation read-out. activation, %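 (tested at 5 µM)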. 140,000 compounds, 0.48% hits;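 active means above mean plus 3 SD of all compounds, about 5% in these data, not always enough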;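 further: 0% = vehicle buffer wells and 100% = reference agonist at full effect; tested in CHO reporter cells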
Insulin prom inh cell count = recorded beside Insulin prom inh, whose call it bears; normalized cell count, %; measured here: cell count, toxicity; reference of the scale not given here;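 cells exposed to compound for 48 h; stained nuclei by imaging scaled within each plate; lower means fewer cells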
HSV augment primary fold = second read-out of HSV augment, no call of its own (marks repeat the call); fold increase; compound at 10 µM; measured here: primary screen fold increase 10 uM; tested in PC3 cells;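 GFP signal in the first replicate; 1 = infected wells without compound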
* hit, by the source's call; i = inactive; . = no result given.

SMILES	HSV augment	HSV augment primary fold	Insulin prom inh	Insulin prom inh cell count	PKD1 kinase inh	RGS16-Gao HTS	GALR2 ag
CCCCN=C1NN=C(c2ccc(C)c(C)c2)CS1	i	1.1	.	.	-3	97	.
CC1(C)Cc2c(cnn2-c2ccccc2)C(=O)/C1=N\NC(=O)c1ccccc1O	i	0.97	-22	17	-7	107	-1.3
O=C(CSc1nc(-c2ccccc2)cs1)N1CCN(C(=O)c2ccco2)CC1	i	0.99	6	93	-7	103	-0.6
S=C(Cc1ccc(Cl)cc1)N1CCOCC1	i	1.1	.	.	7	100	.
CCCCOC(=O)C1CCCC(C(=O)OCCCC)N1 (stereo not given)	i	0.94	29	94	-2	94	-2.1
O=C(NC(CO)C(O)c1ccc([N+](=O)[O-])cc1)C(Cl)Cl (stereo not given)	i	0.9	-7	47	-3	105	.
FC(F)(F)c1ccc(Cl)c(-n2c(-c3cc(C4CC4)[nH]n3)n[nH]c2=S)c1	i	1.1	.	.	.	99	.
CCOc1ccc(Cc2nc(C)c(CC(=O)N3CCOCC3)c(=O)[nH]2)cc1	i	0.9	33	124	-16	100	0.6
O=C(c1cccs1)N1CCc2ccccc21	i	1.1	64	140	-5	136	-1.9
CCOc1ccc(/C=C2\SC(=S)NC2=O)cc1OC	i	1.1	.	.	-9	104	.
O=C1NC(=Nc2ccc(O)cc2)S/C1=C\C=C\c1ccco1	i	0.7	.	.	.	98	.
Cc1ccsc1/C=C1/C(=O)NN(c2ccccc2)C1=O	i	0.89	.	.	5	88	.
CCN1CCN(CNC(=O)c2cnccn2)CC1	i	1	.	.	-1	106	-1.4
O=C(COC(=O)c1cc(F)c(F)cc1Cl)NC1CC1	i	1	-127	49	-6	95	.
COc1ccc(C2(O)CN(c3ccccc3)C3=[N+]2CCS3)cc1OC (stereo not given)	i	0.97	.	.	-3	101	.

Some values from the list.
CC1(C)Cc2c(cnn2-c2ccccc2)C(=O)/C1=N\NC(=O)c1ccccc1O in HSV augment primary fold → 0.97
CCN1CCN(CNC(=O)c2cnccn2)CC1 in GALR2 ag → -1.4
COc1ccc(C2(O)CN(c3ccccc3)C3=[N+]2CCS3)cc1OC (stereo not given) in HSV augment primary fold → 0.97

Next part.
SMILES	HSV augment	HSV augment primary fold	Insulin prom inh	Insulin prom inh cell count	PKD1 kinase inh	RGS16-Gao HTS	GALR2 ag
Cc1noc(C)c1COC(=O)Cc1ccc(Cl)cc1	i	0.94	18	122	-9	99	-3.2
CCCCc1nc(SCc2ccc([N+](=O)[O-])cc2)n[nH]1	i	1	-30	162	-2	103	.
CCc1nc2oc3ccccc3c(=O)c2c(=O)n1CCOC	i	0.89	-15	95	-5	102	-0.6
O=c1[nH]ncc(NCCc2ccccc2)c1Cl	i	0.9	.	.	-5	103	.
O=C(Oc1nsnc1N1CCOCC1)N(c1ccccc1)c1ccccc1	i	0.88	.	.	5	106	-1.4
CCCCSc1nc2ccc(Nc3nc(N4CCOCC4)nc(N4CCOCC4)n3)cc2s1	i	0.9	-8	149	1	96	-1.9
O=C(NCc1ccco1)C1CCN(C(=O)c2cc3sccc3n2Cc2ccc(F)cc2)CC1	i	0.8	-50	116	-1	103	0.4
CCOC(=O)c1ccc(NC(=O)CSc2nnc(-c3ccncc3)n2C)cc1	i	0.95	-54	138	-2	100	-2.9
CCc1n(CC(O)COCc2ccccc2)c2ccccc2[n+]1C (stereo not given)	i	0.87	-18	111	6	101	.
O=C(Cc1cccs1)Nc1ccc(S(=O)(=O)N2CCCC2)cc1	i	0.94	-20	73	2	32	.
Cc1nn(S(=O)(=O)N(C)C)c(C)c1CN1C(=O)c2ccccc2C1=O	i	0.91	38	76	-1	90	1.6
CCC(C)n1c(SCC(=O)NC(=O)Nc2ccc3c(c2)OCCO3)nc2ccccc2c1=O (stereo not given)	i	0.9	.	.	-17	106	-3.0
CC1(C(=O)CSc2n[nH]c(-c3ccccc3Cl)n2)CCC(=O)O1 (stereo not given)	i	0.87	-27	134	-18	104	-0.5
Cc1ccsc1/C=N/NC(=O)C1C(=O)NCC1c1ccccc1 (stereo not given)	i	1.1	.	.	.	104	.
Cc1cc2nc(C)c(Cc3ccccc3)c(=O)n2[nH]1	.	.	10	104	-9	94	-1.8
COc1ccc(C(=O)NC(=S)Nc2cccc(NC(=O)c3ccco3)c2)cc1[N+](=O)[O-]	i	0.96	.	.	1	81	-0.9
COC(=O)c1ccccc1NC(=O)CC(NCc1ccccc1)C(=O)O (stereo not given)	i	1.1	10	100	-4	.	-1.8
COc1cc2nc(C3CCC3)n(NC(=O)C3CCC(OC)CC3)c(=O)c2cc1OC (stereo not given)	i	1	-10	61	5	106	-1.1
CCOC(=O)C1CCN(CC(=O)c2c(C)[nH]c3ccccc23)CC1	i	1.1	52	155	3	107	-1.5
CN1CCC(N(C)C(=O)c2ccccc2Nc2ccc(SC(F)F)cc2)CC1	i	0.8	50	125	2	109	-1.6
O=C(COC(=O)C12CC3CC(CC(C3)C1)C2)NCc1ccco1	i	0.95	-52	91	-4	96	-0.6
CCCOc1ccc(N2C(=O)CC(N3CCC(O)(c4cccc(C(F)(F)F)c4)CC3)C2=O)cc1 (stereo not given)	i	0.95	-10	105	-13	98	-3.4
Cc1ccc(/C=N/NC(=O)C(=O)N/N=C/c2ccc(C)o2)o1	i	0.96	-25	101	-2	106	.
CN1CCN(C2=Nc3cc(F)ccc3Cc3ccccc32)CC1	i	0.76	.	.	.	100	.
COc1ccc(-c2cc(-c3cccs3)c(C#N)c(SCC(=O)NCc3ccccc3OC)n2)cc1	i	0.65	5	31	16	95	-0.4
CCn1c(C)c(C(C)=O)c(N2CCN(c3ccc(F)cc3)CC2)nc1=S	i	0.9	-443	106	-6	101	-0.4
C=CCn1c(O)c(N=NC(=S)Nc2ccc(OC)cc2)c2ccccc21	i	0.93	0	56	12	109	-3.4
CC(C)(C)NC(=O)c1cc(Cl)ccc1[N+](=O)[O-]	i	0.99	.	.	8	100	-0.5
CCOC(=O)C(=NC(C)CC)NNc1ccc(Br)cc1 (stereo not given)	i	1.1	25	131	-3	107	-1.3
OC(CN1CCOCC1)Cn1c(-c2cccc(Cl)c2)nc2ccccc21 (stereo not given)	i	0.52	-41	118	-5	102	-1.5
CCNC(=O)/C=C/c1ccccc1[N+](=O)[O-]	i	1	.	.	-8	96	.
O=C(O)CCN(Cc1ccccc1)S(=O)(=O)c1ccccc1Cl	i	1.1	-65	134	0	97	.
Cc1cccc(CSc2nnc([C@@H]3CCCN3C(=O)OC(C)(C)C)o2)c1	i	1	.	.	.	101	.
C=CCn1c(=O)c2c(C)c(C)sc2n2c(Nc3ccccc3)nnc12	i	1	-51	63	5	99	5.9
Cc1ccc2nc(SCC3CCCCO3)[nH]c2c1 (stereo not given)	i	1	.	.	.	106	.
Oc1c(Br)cc(Br)cc1C=NCc1ccccc1	i	1	.	.	0	95	.
O=C1CC(Cc2ccccc2)C(=O)N1CCCn1ccnc1 (stereo not given)	.	.	42	69	-16	87	-1.4
CCOC(=O)CNC(=O)c1ccc(C)cc1	i	0.99	.	.	0	103	0.4
O=C(CCCn1c(=S)[nH]c2cc3c(cc2c1=O)OCO3)N1CCN(c2ccccc2)CC1	i	0.91	12	79	-4	91	-1.3
Cc1cc(C)c(NC(=O)CCCSc2nnc(N)s2)c(C)c1	i	0.92	.	.	4	104	.
CCC(C(=O)OCC(=O)Nc1c(Cl)cc(Cl)cc1Cl)c1ccccc1 (stereo not given)	i	1.2	.	.	-10	92	-0.3
Cc1ccc(/C=C2\Oc3c(ccc(O)c3CN3CCN(C)CC3)C2=O)cc1	.	.	8	72	6	168	.
Cc1cc(C)c2nc(-n3nc(C)cc3N)cc(C)c2c1	i	0.83	.	.	-4	104	.
COc1ccc(C(=O)N=c2c(C#N)cc3c(=O)n4cccc(C)c4nc3n2Cc2ccco2)cc1	.	.	-22	134	-4	81	3.4
O=[N+]([O-])c1ccc(N2CCN(CC(O)COc3ccccc3)CC2)cc1 (stereo not given)	i	1	57	82	-3	102	.

Next section, overlapping the part above by four compounds.
SMILES	HSV augment	HSV augment primary fold	Insulin prom inh	Insulin prom inh cell count	PKD1 kinase inh	RGS16-Gao HTS	GALR2 ag
Cc1ccc(/C=C2\Oc3c(ccc(O)c3CN3CCN(C)CC3)C2=O)cc1	.	.	8	72	6	168	.
Cc1cc(C)c2nc(-n3nc(C)cc3N)cc(C)c2c1	i	0.83	.	.	-4	104	.
COc1ccc(C(=O)N=c2c(C#N)cc3c(=O)n4cccc(C)c4nc3n2Cc2ccco2)cc1	.	.	-22	134	-4	81	3.4
O=[N+]([O-])c1ccc(N2CCN(CC(O)COc3ccccc3)CC2)cc1 (stereo not given)	i	1	57	82	-3	102	.
CC(=O)Nc1ccc(C(=O)N2CCN(C(=O)c3ccco3)CC2)cc1	i	1.1	48	124	4	110	4.5
COc1ccc(-c2cc(NCCc3ccncc3)n3ncnc3n2)cc1	i	0.99	.	.	-6	102	-0.5
CCCN1Cc2cccc(C(=O)NC(CC(=O)OCC)c3ccc(OCC)c(OC)c3)c2C1=O (stereo not given)	i	1.2	.	.	10	94	.
Cc1ccc(NC(=S)N(CCN2CCOCC2)Cc2ccccc2F)cc1Cl	i	0.91	-92	88	0	157	.
COc1ccc(OCCSc2nnc(-c3ccoc3C)n2C)cc1	i	0.96	.	.	-11	100	-0.2
O=C(CN1C(=O)S/C(=C\C=C\c2ccccc2)C1=O)N1CCOCC1	i	0.88	.	.	.	104	.
Cc1nc([N+](=O)[O-])c(NCCCO)n1Cc1ccccc1	i	1	.	.	8	102	.
NNC(=S)Nc1ccc(Cl)cc1	i	1.3	29	130	2	100	.
COc1ccccc1-n1c(CNC(=O)c2ccco2)nnc1SCC(=O)Nc1nccs1	i	0.6	.	.	-17	97	-3.6
Cc1ccnc(NS(=O)(=O)c2ccc(N)cc2)n1	i	0.93	29	164	1	99	-0.6
N#CCCn1c(Cl)nc2ccccc21	i	1	31	135	-8	101	-0.5
CC(=O)Nc1ccc(N2CCC(C)CC2)c([N+](=O)[O-])c1	i	0.84	.	.	-2	97	.
COc1ccc2[nH]c(-c3ccc(C)cc3)cc(=O)c2c1	i	0.9	-38	142	-7	100	-1.5
CCN(Cc1ccccc1)C(=O)CCc1nnc(CCCc2ccccc2)o1	i	1	.	.	7	99	.
CC(C)CC(=O)c1c[nH]c(C(=O)NCCc2ccccn2)c1	i	0.87	.	.	-8	99	-0.1
C[C@]1(C(=O)NCCc2c[nH]c3ccccc23)C=C[C@@H](Cc2ccccc2)N1C(=O)c1ccccc1	i	0.96	-76	96	6	54	-2.4
O=C(CSc1ccc(C(F)(F)F)cn1)Nc1ccccc1	i	0.98	.	.	.	98	.
CCCN1C2=NCCCN2c2ccccc21	i	0.95	-57	63	0	108	-2.4
COc1ccccc1C1(CC(=O)Nc2nccs2)CCOC(C(C)C)C1 (stereo not given)	i	0.9	.	.	3	91	-1.7
NC(=O)CC[C@H](NC(=O)OCc1ccccc1)C(=O)OCc1ccc(Cl)cc1	i	0.94	-22	71	-7	95	-2.0
CN=c1scc(-c2ccccc2F)n1/N=C(\C)c1cccnc1	i	0.91	.	.	-6	101	.
CCC(C)N=C1CC(C)(C)CC(=O)/C1=C(/O)Cc1ccccc1 (stereo not given)	i	0.92	-13	102	-13	113	-0.8
O=C1OCc2cc(NC(=O)C34CC5CC(CC(C5)C3)C4)ccc21	i	0.97	5	40	0	119	0.1
Cc1ccc(/C(O)=C2\C(=O)C(=O)N(c3cc(C)on3)C2c2cccc(Br)c2)cc1 (stereo not given)	i	0.95	44	69	1	83	0.0
C/C(=N\NC(=O)c1cccc(S(=O)(=O)Nc2ccccc2Cl)c1)c1ccco1	i	0.97	16	162	10	103	-0.6
O=C(Nc1ccccc1N1CCOCC1)c1ccc([N+](=O)[O-])cc1	i	1.1	-43	102	-3	131	-0.5
Cc1ccccc1NC(C)C(=O)N/N=C/c1c[nH]c2ccccc12 (stereo not given)	i	1	-136	70	-2	104	.
CCOC(=O)N1CCN(c2nc(-c3ccc(F)cc3)cs2)CC1	i	0.88	-31	133	-5	106	-2.0
CCN(CC)C(=O)Cn1nnc(-c2ccc(C)o2)n1	i	1	.	.	-17	103	-1.1
COC(=O)c1ccc(CC(=O)c2nc3ccccc3s2)cc1	i	1	.	.	-5	99	-0.3

2 records picked at random from the list so far, as already listed:
SMILES	HSV augment	HSV augment primary fold	Insulin prom inh	Insulin prom inh cell count	PKD1 kinase inh	RGS16-Gao HTS	GALR2 ag
CCOC(=O)N1CCN(c2nc(-c3ccc(F)cc3)cs2)CC1	i	0.88	-31	133	-5	106	-2.0
CCN(CC)C(=O)Cn1nnc(-c2ccc(C)o2)n1	i	1	.	.	-17	103	-1.1
